Source: PubChem (several laboratories)
FGF22 binding: FGF22 (human) thermal shift binding | recombinant FGF22 thermal shift, SYPRO orange fluorescence; percent of sucrose octasulfate shift, DMSO zero | calls only at 9.99 µM | 340,000 compounds, 1.5% hits;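 active = melting point raised past a set limit in the mean and every replicate; inconclusive = no clear call; three in four hits are not shown here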
Vif A3G: HIV-1 Vif–A3G interaction blockers – biochemical, TR-FRET, GST-Vif 1-94, biotin-A3G peptide, dose response retest, primary screen (AID 1117319). TR-FRET GST-Vif / biotin-A3G peptide binding; higher % means a stronger effect; test concentration not given here; strong numbers were not always called active. one-dose inhibition, %; IC50 in µM for titrated hits. 260,000 compounds, 0.57% hits;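 active = above the screen mean plus three standard deviations and confirmed in dose response; inconclusive = results disagree or hit not tested in dose response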;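 also: Vif residues 1-94 fused to GST binding biotinylated APOBEC3G peptide 110-148; 0% = full assay without inhibitor and 100% = GST in place of GST-Vif; retest series ran down from 100 µM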
RanGTP-Imp inh: inhibitors of RanGTP-importin-beta interaction, primary screen, biochemical, FRET, CFP-Ran, YFP-importin-beta, homogeneous | cell-free CFP-Ran/YFP-importin-beta FRET ratio | inhibition, % (test concentration not listed) | AID 2216 | 300,000 compounds, 1.1% hits;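 active = most replicates above 15%; inconclusive = exactly half above 15%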;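 also: 0% = DMSO wells and 100% = Ran loaded with GDP instead of GTP; wells of about 40 µL received 100 nL stock; the first replicate is given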
E coli growth: blocks Escherichia coli growth. OD600, 23 h; active compounds read low. 330,000 compounds, 0.21% hits. OD600 absorbance (no concentration beside the values);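 active = OD600 absorbance below the run mean of sample wells minus 3.6 SD, in any replicate, cut at about 0.56 in these data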;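 also: stock transfer was 300 nL into about 60 µL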
AF4-AF9 inh: MLL-AF4/AF9 protein interaction inhibition; inhibition, % at 10 µM; AID 651704; AlphaScreen, biotin-AF4 peptide binding to FLAG-AF9; 350,000 compounds, 0.47% hits; P42568;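 active = every replicate reaching a set inhibition limit, whatever the replicate mean, cut at about 25% in these data; inconclusive = mean inhibition reaches that limit but some replicates miss it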;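 also: 0% = plate neutral control median and 100% = total signal loss; the record names both 10 and 1 µM as test concentration; the first replicate is given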
Target sequence (P42568 whole entry, looked up): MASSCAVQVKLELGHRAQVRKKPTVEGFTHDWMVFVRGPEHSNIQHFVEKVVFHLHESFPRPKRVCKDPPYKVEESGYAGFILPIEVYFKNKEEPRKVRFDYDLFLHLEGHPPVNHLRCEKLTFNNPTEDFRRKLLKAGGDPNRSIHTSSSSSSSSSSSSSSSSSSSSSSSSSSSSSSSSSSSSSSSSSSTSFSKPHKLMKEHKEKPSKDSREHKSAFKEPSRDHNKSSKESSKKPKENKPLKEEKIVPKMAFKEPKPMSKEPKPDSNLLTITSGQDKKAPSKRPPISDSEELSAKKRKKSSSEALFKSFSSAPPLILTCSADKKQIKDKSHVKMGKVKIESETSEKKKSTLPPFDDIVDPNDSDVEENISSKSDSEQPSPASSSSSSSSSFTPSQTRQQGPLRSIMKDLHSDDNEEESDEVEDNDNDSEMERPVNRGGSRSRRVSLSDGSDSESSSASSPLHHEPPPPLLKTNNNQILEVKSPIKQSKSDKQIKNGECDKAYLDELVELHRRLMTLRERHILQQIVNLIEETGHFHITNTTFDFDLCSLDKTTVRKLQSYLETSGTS
UCH37 DUB inh: inhibitors of human deubiquitinating enzyme UCH37 | Q9Y5K5 | purified proteasome/UCH37, Ub-AMC cleavage fluorescence | inhibition, % (test concentration not listed) | AID 588478 | 330,000 compounds, 0.33% hits;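 active = mean of two replicates above 20%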;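 also: 0% = compound-free wells with enzyme and 100% = wells lacking proteasome; stock transfer was 100 nL into about 20 µL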
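system = Proteasome-associated human UCH37 deubiquitinase | amount = 0.15 nM proteasome as dispensed | medium = pH 7.4 Tris-HCl (50 mM) with ovalbumin, ATP-MgCl2, DTT | incubation = 30 min preincubation with enzyme, 25 min cleavage at room temperature | detection = AMC fluorescence 355/460 nm | read-out basis = percent inhibition | controls = no-proteasome and no-compound wells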
HNF4A DNA FP: change in binding of human HNF4 alpha to DNA; P41235; HNF4a-FITC DNA binding, fluorescence polarization, 1 h; activity change, % at 10 µM; 360,000 compounds, 0.3% hits; in the data active = activity change above about 30%, passing the limit was not always enough;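 also: controls were the assay level and a saturating level of protein; the project sought stronger binding though the title names inhibitors; some compounds called inactive have numbers as strong as hits; positive values seem to mean higher polarization but the record does not say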
Target sequence (P41235 whole entry, looked up): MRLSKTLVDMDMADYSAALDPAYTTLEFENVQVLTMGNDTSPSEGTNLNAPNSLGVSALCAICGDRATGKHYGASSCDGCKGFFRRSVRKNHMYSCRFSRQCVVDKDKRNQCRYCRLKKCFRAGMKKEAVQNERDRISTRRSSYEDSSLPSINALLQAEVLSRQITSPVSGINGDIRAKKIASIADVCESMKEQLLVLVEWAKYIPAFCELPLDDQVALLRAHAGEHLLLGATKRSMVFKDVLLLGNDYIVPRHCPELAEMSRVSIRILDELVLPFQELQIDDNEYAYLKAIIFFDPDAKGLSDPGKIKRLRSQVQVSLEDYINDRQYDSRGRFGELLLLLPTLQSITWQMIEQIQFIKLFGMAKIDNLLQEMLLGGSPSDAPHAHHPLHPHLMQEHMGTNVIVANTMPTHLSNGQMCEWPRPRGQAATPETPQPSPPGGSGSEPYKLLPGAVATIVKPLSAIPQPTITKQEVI
The depositor's hits bear a star; i = inactive; ? = inconclusive; nt = no result given. Not all compounds are listed, so the mix of outcomes need not match the whole.

FGF22 binding	Vif A3G	RanGTP-Imp inh	E coli growth	mol	AF4-AF9 inh	UCH37 DUB inh	HNF4A DNA FP
nt	-3%	3.9	0.68	COc1cccc(NC(=S)NNC(=O)C(C)n2nc(C)c([N+](=O)[O-])c2C)c1 (stereo unspecified)	nt	1.8	-2.9
i	4%	0.8	0.7	COc1ccc(CCC(=O)NCCOc2ccc(Cl)cc2)cc1	-1.9	1.1	-2.7
nt	3%	-1.6	nt	C/C(CCc1ccc2c(c1)OCO2)=N\N=C(/N)SC1CC(=O)N(c2ccccc2F)C1=O (stereo unspecified)	nt	nt	-0.2
nt	?	4.2	0.77	COc1ccc(C2C(=O)N(C3CCCCC3)CC(=O)N2CCc2ccccc2)cc1OC (stereo unspecified)	nt	0.2	0.1
i	nt	3.8	0.72	COc1ccc(CN(CC(=O)NCc2ccccc2)C(=O)CCC(=O)Nc2ccccn2)cc1	-2.1	1.0	2.0
i	-3%	-2.9	0.73	COCCn1c(=O)[nH]c2cc(C(=O)NC3CCCCCC3)ccc2c1=O	-7.4	-8.8	0.5
nt	29%	?	0.65	COc1ccc(C2=C(N)c3ccccc3C2=O)cc1	nt	2.7	-1.8
i	nt	nt	nt	COCCCN1C(=O)C(CC(=O)NCCCN(C)C)CC(C(=O)N2CCCCCC2)=C1C (stereo unspecified)	0.5	nt	-1.0
i	-1%	-14	0.69	CC1CCCN(c2ccc([N+](=O)[O-])s2)C1 (stereo unspecified)	2.3	15	26
nt	3%	2.2	0.77	Cc1cccc(C)c1NC(=O)CC1SC2=NCCN2C1=O (stereo unspecified)	nt	1.4	3.6
nt	?	3.0	0.76	CCCn1c(=O)[nH]c(=O)c2c1nc(-c1ccc(OC(F)(F)C(F)C(F)(F)F)cc1)n2CCOC (stereo unspecified)	nt	-4.1	0.1
nt	-6%	0.4	0.73	COc1ccc(-c2noc(CSc3nc(-c4ccccc4)cc(=O)[nH]3)n2)cc1OC	nt	4.8	-0.9
i	nt	3.3	nt	CCc1ccc2nc(SCC(=O)Nc3ccccc3N3CCOCC3)c(C#N)cc2c1	5.5	nt	6.0
i	-3%	nt	0.69	Cc1ccc(C)c(NC(=O)COC(=O)CCNC(=O)c2ccco2)c1	-0.2	1.1	0.1
nt	6%	-3.3	0.73	COc1ccc(CNC(=O)CC2C(=O)NCCN2CC(C)(C)C)c(OC)c1 (stereo unspecified)	nt	-5.1	3.5
nt	0%	-0.4	0.67	CCC(=O)NCCc1nc2cc(NC(=O)c3ccccc3OC)ccc2n1C	nt	5.1	-0.8
i	3%	3.0	0.68	C=CCN=Cc1c(C)[nH]n(-c2ccccc2)c1=O	0.2	5.8	-1.6
i	6%	nt	0.67	CCOCc1c(C(=O)N2CCN(CC(=O)Nc3ccc(F)cc3)CC2)oc2ccccc12	-1.2	-1.0	1.4
i	11%	nt	0.68	COc1ccc(N2CCN(C(=O)COC(=O)c3ccc(OC(F)F)cc3)CC2)cc1	-1.7	-1.0	0.2
nt	12%	-1.7	0.63	O=C(Nc1nnc(-c2ccco2)s1)C1CC1	nt	-3.5	-3.9
nt	7%	0.4	nt	N#CC1=C(c2ccc(-c3ccccc3)cc2)COC1=O	0.3	nt	7.8
i	nt	-3.1	nt	CCc1ccc(/C(C)=N/NC(=O)c2c[nH]c3ccccc23)s1	-1.2	nt	-1.6
nt	5%	-4.3	0.76	COc1cccc(C2CC(c3cccs3)=NN2C(=S)Nc2ccccc2)c1OC (stereo unspecified)	nt	-1.0	-2.3
i	nt	7.2	0.6	CC(NC(=O)C1CCCN(S(=O)(=O)N2CCOCC2)C1)c1ccccc1 (stereo unspecified)	-1.1	-0.1	1.1
i	nt	2.9	0.68	O=C(CCS(=O)(=O)Cc1ccccc1)Nc1ncc([N+](=O)[O-])s1	-1.7	5.0	2.1
nt	23%	?	0.74	O=C(NN1C(=O)C2C3C=CC(C3)C2C1=O)c1ccco1 (stereo unspecified)	nt	-1.0	1.1
i	nt	-2.0	0.63	COc1ccccc1CN1CCCCCC1	4.3	6.6	0.9
nt	3%	-1.2	0.61	CN(Cc1cc([N+](=O)[O-])c2cccnc2c1O)C1CCCCC1	nt	6.3	nt
i	-1%	4.7	0.76	O=C(NCCN1CCOCC1)C1CCN(c2ncnc3c2sc2cccc(F)c23)CC1	-1.2	-0.2	-0.3
i	2%	nt	0.68	O=C(Cc1cccc(NC(=O)C2CCN(C(=O)C3CCCC3)CC2)c1)Nc1cccc(C(=O)N2CCCCC2)c1	-0.9	1.6	0.6
i	3%	nt	0.65	Nc1ccc(CSc2ccc(Cl)cc2)c(Cl)c1	-2.6	3.6	5.6
i	-1%	-4.6	0.65	Cc1cc(C)c2c(N)c(C(=O)c3ccc(Cl)c(Cl)c3)sc2n1	-1.6	3.6	21
i	0%	1.7	0.73	Cc1cc(C)cc(N(CC(=O)NCCSCc2ccco2)S(C)(=O)=O)c1	0.8	-0.4	-1.7
i	nt	-0.9	0.67	COc1cccc(/C=C2\SC(=O)N(CCC(=O)NNC(=O)c3cccc(Cl)c3)C2=O)c1	-1.7	-4.7	0.3
i	5%	-4.9	nt	COc1cc(/C=N/NC(=O)CCC(=O)Nc2ccc(Br)cc2)ccc1O	0.3	nt	-1.8
i	19%	-1.0	0.72	CCc1cc(C(=O)N=Nc2c(O)[nH]c3c(Br)cc(Br)cc23)c2ccccc2n1	7.5	0.2	3.7
i	nt	-1.6	0.73	CCCCCn1c(CN2CCN(C(=O)OCC)CC2)nc2c1c(=O)n(C)c(=O)n2C	-2.6	4.0	-3.2
i	nt	20*	0.65	Cc1ccc2nc(NCC(N)=O)nc(-c3ccccc3)c2c1	-1.4	-372	nt
nt	24%	1.9	0.63	COc1ccc(-c2cc(C(=O)N3CCCc4ccccc43)no2)cc1	nt	0.9	0.3
i	-3%	0.6	0.66	CCC1OC(c2ccc([N+](=O)[O-])cc2)=Nc2ccccc21 (stereo unspecified)	4.4	1.2	-0.1
nt	3%	2.2	0.71	Cc1ccc(NC(=S)Nc2ncccc2C)c(C)c1	nt	-2.0	0.5
i	nt	3.3	0.74	COc1ccc(C(=O)N(C)c2c(C)n(C)n(-c3ccccc3)c2=O)cc1OC	-0.4	3.4	1.2
nt	4%	5.7	0.72	Cc1ccc(-c2cc(C(=O)Nc3ccc4c(c3)OCCO4)c3ccccc3n2)cc1	nt	11	-2.4
i	nt	0.4	0.69	CN(CCOc1ccccc1)C(=O)c1cc(COc2c(F)cccc2F)on1	-5.1	5.5	2.8
nt	3%	1.6	0.7	CC1CCN(CCCNC(=O)c2ccc(Cn3c(=S)[nH]c4ccc(Br)cc4c3=O)cc2)CC1	nt	3.3	nt
i	-2%	nt	0.72	COc1ccccc1N1CN(S(=O)(=O)c2ccc(C)cc2)c2nc3ccccc3nc21	1.9	-36	-2.5
nt	26%	3.4	0.7	COc1cc2nc(C)sc2cc1SC	nt	1.4	-4.6
i	1%	-0.6	0.72	CCNC(=O)COc1cc(C)c(Br)c(C)c1	0.1	3.3	-3.0
i	nt	?	0.68	Cc1nnc(NC(=O)CSc2nnc(CC(=O)Nc3ccccc3Cl)n2C)s1	1.0	0.2	0.2
i	nt	2.2	0.72	COC(=O)c1cccc(C(=O)N2CCCC(C(=O)c3cccc(OC(C)C)c3)C2)c1 (stereo unspecified)	-1.8	3.3	-4.4
i	11%	?	0.73	NS(=O)(=O)c1ccc(N=C2C(=O)Nc3ccccc32)cc1	1.5	6.6	-2.1
nt	?	-1.0	0.67	COc1cc2c(cc1OC)/C(=C/c1ccc(Br)cc1)C(=O)OC2	nt	1.9	1.2
i	0%	nt	0.68	O=C(NCCCN1CCCC1=O)c1cc(S(=O)(=O)N2CCOCC2)c(Cl)cc1Cl	2.4	-2.5	-2.5
nt	19%	9.5	0.66	O=C1C=C(NNC(=O)c2ccccc2Br)CCC1	-1.7	3.2	-1.6
i	-3%	1.1	0.7	Cc1ccc2nc(N(CCCN(C)C)C(=O)CN3C(=O)c4ccccc4C3=O)sc2c1	19	2.4	6.4
i	-12%	nt	0.72	CN(C(=O)c1ccccc1C(=O)OCC(=O)c1ccccc1)c1ccccc1	-1.0	-2.5	-2.1
i	nt	1.0	0.65	Nn1c(Cc2ccccc2)nc2ccccc2c1=O	-1.4	2.4	-2.9
nt	-2%	1.4	0.72	COc1cccc(CN2CCN(CC(=O)Nc3ccccc3Cl)CC2)c1	nt	3.1	-0.7
i	3%	2.6	0.72	Cc1c(-n2cc(C(=O)O)c(=O)c3cc(F)c(N4CCCC(O)C4)c(F)c32)c(=O)n(-c2ccccc2)n1C (stereo unspecified)	-2.0	-12	0.3
i	-3%	nt	0.69	N#Cc1ccc(C(=O)N2CCN(C(=O)C3CCCO3)CC2)cc1 (stereo unspecified)	0.3	1.6	0.9

Some of the entries so far, as comma-separated lines.
SMILES,FGF22 binding,Vif A3G,RanGTP-Imp inh,E coli growth,AF4-AF9 inh,UCH37 DUB inh,HNF4A DNA FP
O=C1C=C(NNC(=O)c2ccccc2Br)CCC1,nt,19%,9.5,0.66,-1.7,3.2,-1.6
Cc1ccc2nc(N(CCCN(C)C)C(=O)CN3C(=O)c4ccccc4C3=O)sc2c1,i,-3%,1.1,0.7,19,2.4,6.4
CN(C(=O)c1ccccc1C(=O)OCC(=O)c1ccccc1)c1ccccc1,i,-12%,nt,0.72,-1.0,-2.5,-2.1

(listing goes on)
FGF22 binding	Vif A3G	RanGTP-Imp inh	E coli growth	mol	AF4-AF9 inh	UCH37 DUB inh	HNF4A DNA FP
i	3%	nt	nt	O=C(Nc1ccc([N+](=O)[O-])cc1)c1cccc([N+](=O)[O-])c1	-2.0	nt	-0.6
nt	30%	-2.1	0.71	COc1ccccc1NS(=O)(=O)c1cccc(C(=O)OCc2nc3ccccc3s2)c1	nt	2.8	3.5
i	10%	2.1	nt	COc1ccc(C(=O)N/N=C/c2sc(=O)n(Cc3cccc(C(=O)O)c3)c2Cl)cc1	-17	nt	-4.6
nt	-5%	2.9	nt	Cc1ccc(NC(=O)c2cc3c(=O)oc4ccccc4c3s2)nc1	nt	nt	3.3
i	-12%	-1.2	0.7	CCCCCC(=O)NNC(=O)Cc1ccc([N+](=O)[O-])cc1	-1.1	0.0	0.5
nt	4%	1.4	0.68	CCCC(C)NC(=O)COc1ccc(S(=O)(=O)c2ccc(OCC(=O)NC(C)CCC)cc2)cc1 (stereo unspecified)	nt	4.0	-1.2
i	-10%	nt	0.62	CCN(CC(=O)Nc1ccc(NC(C)=O)cc1)C(=O)c1ccc(C(=O)c2ccccc2)cc1	-7.2	0.7	2.2
nt	-2%	-0.4	0.77	CC(=O)c1cccc(N(CC(=O)O)S(C)(=O)=O)c1	nt	-0.7	3.0
i	4%	-1.5	0.7	Nc1nonc1OCCN1CCN(c2ccc([N+](=O)[O-])c3cccnc23)CC1	6.2	11	3.7
i	nt	nt	0.69	Cc1ccc(NS(=O)(=O)c2ccc3c(c2)OCCCO3)cc1S(=O)(=O)N1CCOCC1	2.8	1.1	0.9
i	nt	2.7	0.74	O=C(Nc1ccccc1Cl)C1C2CCC3C(CCC21)C3(Cl)Cl (stereo unspecified)	-7.8	-1.0	1.0
i	nt	nt	nt	OCC[C@H]1C[C@@H](O)[C@H](O)[C@@]2(CCc3ccccc3CO2)O1	nt	4.1	0.1
i	-16%	3.3	0.74	Cc1ccc2cc(CCNC(=O)C(=O)c3c[nH]c4ccccc34)c(=O)[nH]c2c1	-3.6	-6.8	0.5
nt	0%	5.8	nt	COC(C)(C)[C@]12CC(O)(c3ccccc3)ON1[C@H]1CCCCC1N2O (stereo partly specified)	nt	3.9	-3.3
i	nt	1.5	0.69	CC(=O)N1c2ccc(S(=O)(=O)N(C)Cc3ccccc3)cc2CC1C (stereo unspecified)	1.2	2.6	4.4
